Assay outcomes deposited in PubChem by National Center for Advancing Translational Sciences (NCATS).
GAA glycogen mod – alters human alpha-glucosidase cleavage of glycogen; AID 2100; recombinant GAA, glycogen substrate, Amplex Red glucose oxidase fluorescence; Potency, µM (series often up to 76.4 µM), for inactives: at the highest dose activity change, negative = inhibition, hits mostly inhibitors; actives 0.38% (n = 300,000); P10253;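 further: 0% = full enzyme reaction and -100% = no-enzyme basal signal; the screen sought inhibitors and activators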
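Recombinant human alpha-glucosidase (4 nM final) hydrolysed bovine liver glycogen (30 ug) for 40 min at 37 C in pH 5.0 citrate/phosphate with 0.01% Tween-20. Released glucose detected by glucose oxidase/Amplex Red, Ex 573/Em 610 nm. Compounds up to 77 uM; AC50 from Hill fits.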
aGal spleen mod – inhibits or activates alpha-galactosidase in human spleen homogenate; actives 0.008% (n = 240,000); human spleen homogenate, 4MU-alpha-Gal fluorescence, 40 min; Potency, µM (titrated, usually from 80 µM), for the others: at the top dose activity change, negative = inhibition, hits mostly inhibitors; P06280;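 further: 0% = enzyme with vehicle and -100% = no enzyme basal signal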
Target sequence (P06280 32-429 limits assumed): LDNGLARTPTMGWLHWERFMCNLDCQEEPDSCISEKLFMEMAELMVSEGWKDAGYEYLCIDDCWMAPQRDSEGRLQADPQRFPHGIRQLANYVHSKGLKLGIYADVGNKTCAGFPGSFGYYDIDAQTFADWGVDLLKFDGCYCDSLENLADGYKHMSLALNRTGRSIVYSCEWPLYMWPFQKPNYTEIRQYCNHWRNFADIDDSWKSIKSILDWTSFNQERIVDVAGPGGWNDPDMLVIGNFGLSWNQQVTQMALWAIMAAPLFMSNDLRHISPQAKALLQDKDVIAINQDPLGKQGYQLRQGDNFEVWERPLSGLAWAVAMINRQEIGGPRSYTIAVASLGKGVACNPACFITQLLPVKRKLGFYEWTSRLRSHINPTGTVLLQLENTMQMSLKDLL
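Human spleen homogenate (1 ug) was the enzyme source, with 4-methylumbelliferyl-alpha-D-galactopyranoside (1 mM final) in pH 5.0 citrate buffer with 0.01% Tween-20. Compounds were titrated; after 40 min at 37C, NaOH/glycine stop, 4-MU fluorescence read; AC50 from Hill fits.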
GAA spleen mod – lysosomal alpha-glucosidase (human) modulation; P10253; human spleen homogenate, 4-MU-alpha-glucoside fluorescence; Potency, µM (highest dose often 79.9 µM), for the others: at the top dose activity change, negative = inhibition, usual class: inhibitors; actives 0.006% (n = 240,000); AID 2112;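 further: 0% = enzyme with vehicle and -100% = no enzyme basal signal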
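Enzyme source: human spleen homogenate, 1 ug/well. Buffer 50 mM citric acid/K phosphate pH 5.0, 0.01% Tween-20. 4-MU-alpha-glucoside 1 mM; 37 C x 40 min; NaOH/glycine stop; fluorescence.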
GoLoco inh red – inhibitors of human Gai1-RGS12 GoLoco interaction (red fluorophore) | P63096 | Gai1:RGS12 GoLoco peptide FP, rhodamine, 10 min | Potency, µM (doses to about 61.6 µM), inactives show at the top dose activity, negative = inhibition, hits mostly inhibitors | actives 0.44% (n = 230,000) | AID 880; active means well fitted inhibition curve with a large enough effect, not every such curve was filed as active; inactive means no such curve, though single readings can be large or run the other way; further: on the % scale 0 is the no-effect control and ±100 the full control effect; nearly all actives have a fitted effect of over 30% in size; many of its hits are not listed in these tables
SMN2 splice enh – increases expression of the SMN2 splice variant | HEK293 SMN2-luciferase splicing reporter, luminescence, 30-36 h | Potency, µM (titrated, usually from 46.1 µM), for inactives: at the top dose activity change, positive = activation, actives largely listed as activators | AID 1458 | actives 2.8% (n = 210,000); further: % of control where 0% means no effect; nearly all actives have a fitted effect of over 55% in size
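qHTS luciferase splicing reporter: luminescence rises when SMN2 exon 7 is included in transfected HEK293 cells. Compound exposure lasted 30-36 h at 37C, with 4.5 mM final sodium butyrate as control, followed by a ONE-Glo read.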
GAA inh – inhibitors of human lysosomal alpha-glucosidase. P10253. purified human GAA, 4-MU-alpha-glucoside fluorescence. Potency, µM (titrated, usually from 76.9 µM), inactives show at the highest dose activity change, negative = inhibition, usual class: inhibitors. actives 0.005% (n = 200,000). AID 1466;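 further: plate controls were uninhibited enzyme wells for no effect and no-enzyme background for full effect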
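Human alpha-glucosidase, 4 nM, pre-mixed with test compounds before 400 uM 4-methylumbelliferyl substrate; 20 min room temperature at pH 5.0. Fluorescence read after pH 10 stop; AC50 values from Hill-equation fits.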
KDM4E inh – blocks human JMJD2E demethylase activity | actives 1.6% (n = 230,000) | AID 2147 | Potency, µM (titrated, usually from 57.1 µM), inactives show top-dose activity change, negative = inhibition, most hits filed as inhibitors | JMJD2E catalytic domain, FDH-coupled NADH fluorescence (FDH is formaldehyde dehydrogenase) | B2RXH2; active means well fitted inhibition curve with a large enough effect, not every such curve was filed as active; inconclusive means small, poorly fitted or top-dose-only effect, or another doubt; inactive means no such curve, though single readings can be large or run the other way;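 further: 0% = wells with enzyme and -100% = buffer wells without enzyme; nearly all actives have a fitted effect of over 50% in size; many of its hits are not listed in these tables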
Target sequence (B2RXH2 1-337 limits assumed): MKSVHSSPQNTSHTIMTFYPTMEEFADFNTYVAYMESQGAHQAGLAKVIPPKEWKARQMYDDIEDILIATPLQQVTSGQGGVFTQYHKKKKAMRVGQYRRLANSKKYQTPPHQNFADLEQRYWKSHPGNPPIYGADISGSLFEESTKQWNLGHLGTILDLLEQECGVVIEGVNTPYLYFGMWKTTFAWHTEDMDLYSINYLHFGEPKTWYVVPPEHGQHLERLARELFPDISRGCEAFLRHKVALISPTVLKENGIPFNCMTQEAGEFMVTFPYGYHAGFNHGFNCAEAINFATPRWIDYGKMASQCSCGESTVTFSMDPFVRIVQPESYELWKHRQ
Starred values were filed as active, the others as inactive; ? = inconclusive; · = not tested or not shown; & = joins results of further samples; [ ] = remark or other dose. Unless noted, the call rests on the fitted dose curve; in most records, active means well fitted curve in the direction sought with a large enough effect; inconclusive means small, poorly fitted or top-dose-only effect, or another doubt; inactive means no such curve, though single readings can be large; an effect the other way counts as inactive or inconclusive. Potency means the concentration at half of the fitted maximal effect.

SMILES	GAA glycogen mod	aGal spleen mod	GAA spleen mod	GoLoco inh red	SMN2 splice enh	GAA inh	KDM4E inh
Cc1ccc(SCc2noc(C(=O)NCC3CCCO3)c2C(=O)O)cc1C (stereo not given)	6%	0%	-9%	-3%	?	4%	-6%
Nc1sc2c(c1C(=O)NC1CCS(=O)(=O)C1)CCCC2 (stereo not given)	-16%	2%	-4%	21%	-13%	5%	28µM*
CCOC(=O)c1c(NC(=O)CSc2nnc(-c3ccccc3)n2CC)sc(C(C)=O)c1C	-5%	-6%	-10%	1%	-19%	-4%	-7%
O=C(CSc1nc(-c2ccco2)cc(C(F)(F)F)n1)N1CCSCC1	-11%	1%	0%	-1%	-22%	2%	0%
COc1ccc(-c2cc(C(F)(F)F)nc(S(C)(=O)=O)n2)cc1OC	-5%	20%	1%	2%	-58%[inhibitor]	-10%	-5%
COc1ccc(-n2c(=O)c3ccccc3c3ccccc3c2=O)c(OC)c1	8%	0%	-2%	-1%	5%	-1%	-3%
Cn1ncc(C(=O)Nc2ccc(Cl)cc2)c1C(F)(F)F	2%	2%	-7%	9%	·	-4%	-20%
COc1ccc(NC(=O)NCCCN2CCN(c3cc(C)ccc3C)CC2)cc1	5%	4%	6%	0%	-29%	-5%	-7%
COC(=O)CNC(c1ccccc1)c1cc(C)ccc1NS(=O)(=O)c1ccc(C)cc1 (stereo not given)	-15%	-1%	-4%	4%	17%	-6%	1%
CCOc1ccc(C(=O)C(c2ccccc2)N2CCOCC2)cc1 (stereo not given)	7%	2%	6%	12%	-2%	-9%	-2%
CC(C)(C)C(=O)O/N=C(\N)c1ccc(-c2csnn2)cc1	-2%	-5%	-2%	3%	·	2%	12%
O=C(c1ccc([N+](=O)[O-])cc1)N1CCN(Cc2ccccc2)CC1	6%	10%	-1%	-14%	-43%	3%	2%
Cc1ccc(N2C(=O)C3C4C=CC(C4)C3C2=O)cc1 (stereo not given)	-25%	14%	4%	2%	-1%	5%	0%
Cc1ccc(S(=O)(=O)N(CC(=O)O)Cc2ccccc2)cc1	6%	4%	3%	3%	-7%	1%	6%
COc1ccc(CNC(=O)CSCc2ccccc2Cl)cc1	3%	1%	-7%	-9%	?	5%	10%
CSc1cccc(CN2CCC(CO)(Cc3ccccc3)CC2)c1	11%	0%	3%	-11%	·	-12%	3%
CC1(C)CC(=O)C2=C(C1)OC1OC(=O)CC21C (stereo not given)	2%	-4%	1%	1%	30%	2%	7%
CC(C)(C)C(=O)Cn1c(NCCO)nc2ccccc21	3%	-3%	-2%	-1%	3%	0%	2%
O=C(NCc1cccs1)C1CCN(S(=O)(=O)c2cccc3nsnc23)CC1	-1%	-5%	-5%	6%	-6%	-1%	3%
Fc1ccccc1OCCCCCN1CCCC1	5%	1%	-5%	3%	-8%[1.84 µM]	0%	-13%
Cc1ccc(C)c(NC(=O)CSc2nnc(-c3ccco3)o2)c1	5%	-4%	-3%	2%	22%	-4%	0%
Cc1c(C)n(C(=O)CSc2nccn2C)c2ccccc12	-8%	1%	0%	8%	-7%	-3%	-17%
CCn1c(SCC(=O)NC2CCCc3ccccc32)nnc1-c1ccncc1 (stereo not given)	-4%	1%	2%	3%	-14%	1%	-2%
Cc1cc(C(=O)COC(=O)c2ccc(N)c([N+](=O)[O-])c2)c(C)n1-c1ccc2c(c1)OCO2	-3%	6%	5%	5%	-78%[inhibitor]	-2%	-8%
O=C(O)c1c2c(nc3ccc(S(=O)(=O)N4CCC(C(=O)N5CCCCC5)CC4)cc13)CCCC2	-10%	-5%	-10%	16%	-11%	?	?

KDM4E inh: what is marked active above.
SMILES	GAA glycogen mod	aGal spleen mod	GAA spleen mod	GoLoco inh red	SMN2 splice enh	GAA inh	KDM4E inh
Nc1sc2c(c1C(=O)NC1CCS(=O)(=O)C1)CCCC2 (stereo not given)	-16%	2%	-4%	21%	-13%	5%	28µM*

Next section.
SMILES	GAA glycogen mod	aGal spleen mod	GAA spleen mod	GoLoco inh red	SMN2 splice enh	GAA inh	KDM4E inh
Oc1c(Cl)cc(Cl)c2cccnc12	6%	11%&3%	-20%&-22%	-13%&-14%	-65%&-92%[inhibitor]	-10%	14µM*
O=C(NCc1cccc(Cl)c1)c1cnn2c1NC(c1ccco1)CC2C(F)(F)F (stereo not given)	1%	-4%	-13%	186%[activator]	-4%	-12%	-16%
Cc1ccc(S(=O)(=O)N2CCCCC2)cc1NC(=O)C1CCCO1 (stereo not given)	-5%	1%	0%	9%	6%	0%	0%
COC(=O)NNC(=O)c1ccc(Cl)cc1Cl	-3%	7%	-3%	0%	17%	8%	5%
CCNC(=O)OCCC12CC3CC(CC(C3)C1)C2	-7%	4%	6%	0%	3%	-5%	9%
Cc1ccccc1OCCn1c(=O)oc2ccccc21	-5%	-4%	-12%	4%	10%	-3%	-7%
Cc1cc(NS(=O)(=O)c2ccc(NC(=O)c3cc4ccccc4o3)cc2)no1	4%	-10%	-3%	11%	-9%	1%	-3%
CCOC(=O)N1CCN(C(=O)CCCN2C(=O)CSc3nc(C)cc(C)c32)CC1	2%	-13%	2%	6%	-10%	-12%	4%
Cc1cc(NC(=O)/C=C/c2cccc(Cl)c2)n(-c2nc3ccccc3[nH]2)n1	3%	3%	2%	1%	-11%	0%	-1%
O=C(NCCCn1ccnc1)c1ccc(Br)o1	8%	7%	-2%	-13%	-12%	-10%	-1%
N#Cc1ccc(CN2CCCC3(CCN(C(=O)c4cnccn4)CC3)C2)cc1	·	9%	9%	7%	-16%	·	·
N#Cc1cc(-c2ccccc2)oc1NC(=O)c1ccco1	-2%	7%	-2%	7%	22%	-6%	-2%
CCOC(=O)N1C2=NC(C(=O)OC)=C(C(=O)OC)[C@@H]3N(Cc4ccccc4)c4ccccc4[C@]23C[C@H]1C(=O)OC	·	5%[17.5 µM]	2%[17.4 µM]	2%[14.2 µM]	-11%[9.22 µM]	·	16%[11.4 µM]

Filtered by structure, those above with a thiophene ring, fused or not (3)
SMILES	GAA glycogen mod	aGal spleen mod	GAA spleen mod	GoLoco inh red	SMN2 splice enh	GAA inh	KDM4E inh
Nc1sc2c(c1C(=O)NC1CCS(=O)(=O)C1)CCCC2 (stereo not given)	-16%	2%	-4%	21%	-13%	5%	28µM*
CCOC(=O)c1c(NC(=O)CSc2nnc(-c3ccccc3)n2CC)sc(C(C)=O)c1C	-5%	-6%	-10%	1%	-19%	-4%	-7%
O=C(NCc1cccs1)C1CCN(S(=O)(=O)c2cccc3nsnc23)CC1	-1%	-5%	-5%	6%	-6%	-1%	3%

Looked up one by one from the entries so far:
SMILES	GAA glycogen mod	aGal spleen mod	GAA spleen mod	GoLoco inh red	SMN2 splice enh	GAA inh	KDM4E inh
Cc1cc(NC(=O)/C=C/c2cccc(Cl)c2)n(-c2nc3ccccc3[nH]2)n1	3%	3%	2%	1%	-11%	0%	-1%
Cc1ccccc1OCCn1c(=O)oc2ccccc21	-5%	-4%	-12%	4%	10%	-3%	-7%
CCNC(=O)OCCC12CC3CC(CC(C3)C1)C2	-7%	4%	6%	0%	3%	-5%	9%
N#Cc1cc(-c2ccccc2)oc1NC(=O)c1ccco1	-2%	7%	-2%	7%	22%	-6%	-2%
Oc1c(Cl)cc(Cl)c2cccnc12	6%	11%&3%	-20%&-22%	-13%&-14%	-65%&-92%[inhibitor]	-10%	14µM*

Sorted by the number under GAA glycogen mod (ascending): some entries from above.
structure	GAA glycogen mod	aGal spleen mod	GAA spleen mod	GoLoco inh red	SMN2 splice enh	GAA inh	KDM4E inh
COC(=O)CNC(c1ccccc1)c1cc(C)ccc1NS(=O)(=O)c1ccc(C)cc1 (stereo not given)	-15%	-1%	-4%	4%	17%	-6%	1%
O=C(NCc1cccs1)C1CCN(S(=O)(=O)c2cccc3nsnc23)CC1	-1%	-5%	-5%	6%	-6%	-1%	3%
COc1ccc(-n2c(=O)c3ccccc3c3ccccc3c2=O)c(OC)c1	8%	0%	-2%	-1%	5%	-1%	-3%

These rows are one share of the data. The share of hits here may be higher or lower than overall.
